Screens as filed in PubChem BioAssay.
T cruzi repl: T. cruzi replication inhibition. hit rate 1.4% among 300,000. inhibition, % (no concentration beside the values). T. cruzi beta-gal in NIH3T3, luminescence, 90 h;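 active means mean inhibition across valid replicates above about 55%, limit read from the data; inconclusive means mean below that limit but half or more replicates reach it; inactive means mean below it, under half of replicates reach it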;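 further: signal also drops with host cell toxicity which is not excluded here; 0% = plate median of DMSO wells and 100% = zero luminescence signal; higher percent means less beta-gal luminescence so fewer parasites; stock transfer was 50 nL into about 50 µL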
Calb FLC: C. albicans growth modulation with fluconazole; hit rate 0.57% among 300,000; C. albicans CaCi-2 (fluconazole-resistant clinical isolate) + fluconazole, Alamar Blue growth, 48 h; AID 1979; growth inhibition, % (test concentration not listed);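 active means most replicates above 75%; inconclusive means exactly half above 75%; inactive means most below 75%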;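 further: all wells also contain fluconazole at 8 µg/ml as a sub-toxic cotreatment; 0% = median of DMSO wells and 100% = median of geldanamycin control wells; wells of about 8 µL received 7.5 nL stock; the first replicate is given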
LANA-H2A inh: blocks KSHV LANA binding to histone H2A/H2B | Q9QR71 | cell-free LANA-H2A/H2B peptide, fluorescence polarization | inhibition, % (test concentration not listed) | hit rate 0.6% among 320,000 | AID 2629; in the data active means inhibition mostly above about 10%, no sharp cut-off; inactive means mostly below about 6.7%;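 further: stock transfer was 7.5 nL into about 10 µL; 0% = median of vehicle wells and 100% = median of positive control wells; one replicate is shown; the record names a cut of 25% in any replicate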
Target sequence (Q9QR71 whole entry, looked up): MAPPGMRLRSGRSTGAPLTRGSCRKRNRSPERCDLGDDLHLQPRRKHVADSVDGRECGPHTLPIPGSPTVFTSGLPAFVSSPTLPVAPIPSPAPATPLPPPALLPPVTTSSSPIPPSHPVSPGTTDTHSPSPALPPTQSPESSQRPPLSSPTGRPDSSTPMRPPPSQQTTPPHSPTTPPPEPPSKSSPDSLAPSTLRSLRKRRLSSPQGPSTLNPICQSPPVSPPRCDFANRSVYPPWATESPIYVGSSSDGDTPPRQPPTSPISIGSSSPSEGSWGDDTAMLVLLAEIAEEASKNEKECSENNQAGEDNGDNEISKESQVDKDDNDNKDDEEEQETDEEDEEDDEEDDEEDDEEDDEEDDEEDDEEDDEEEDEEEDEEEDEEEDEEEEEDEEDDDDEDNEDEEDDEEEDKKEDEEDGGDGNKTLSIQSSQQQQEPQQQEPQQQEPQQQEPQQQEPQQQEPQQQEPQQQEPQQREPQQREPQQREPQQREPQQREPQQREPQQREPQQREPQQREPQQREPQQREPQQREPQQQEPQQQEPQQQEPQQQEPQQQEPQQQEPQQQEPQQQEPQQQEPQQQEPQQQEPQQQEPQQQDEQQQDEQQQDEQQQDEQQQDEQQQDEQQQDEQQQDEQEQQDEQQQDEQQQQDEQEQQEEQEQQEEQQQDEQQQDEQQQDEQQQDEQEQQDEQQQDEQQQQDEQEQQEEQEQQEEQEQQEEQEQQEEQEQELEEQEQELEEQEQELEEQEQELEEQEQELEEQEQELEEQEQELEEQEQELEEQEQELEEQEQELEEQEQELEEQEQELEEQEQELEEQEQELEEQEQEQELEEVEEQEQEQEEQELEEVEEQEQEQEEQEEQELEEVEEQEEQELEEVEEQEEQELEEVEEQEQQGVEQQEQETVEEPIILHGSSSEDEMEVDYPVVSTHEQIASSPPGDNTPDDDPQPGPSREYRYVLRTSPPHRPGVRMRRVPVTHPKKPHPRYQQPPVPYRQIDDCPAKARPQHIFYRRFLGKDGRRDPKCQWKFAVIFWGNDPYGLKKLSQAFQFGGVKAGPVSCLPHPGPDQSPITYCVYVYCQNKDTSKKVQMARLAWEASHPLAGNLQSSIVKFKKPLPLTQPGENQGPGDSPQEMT
Vif TR-FRET: inhibitors of Vif binding to APOBEC3G peptide, primary screen, biochemical, TR-FRET, GST-Vif 1-94, biotin-A3G peptide, dose response retest (AID 1117319) | hit rate 0.57% among 260,000 | TR-FRET GST-Vif / biotin-A3G peptide binding; higher % means a stronger effect; test concentration not given here; strong numbers were not always called active | inhibition, %, or IC50 in µM where a hit was titrated;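 active means above the screen mean plus three standard deviations and confirmed in dose response; inconclusive means results disagree or hit not tested in dose response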;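 further: Vif residues 1-94 fused to GST binding biotinylated APOBEC3G peptide 110-148; 0% = full assay without inhibitor and 100% = GST in place of GST-Vif; retest series ran down from 100 µM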
RanGTP-Imp inh: disruptors of Ran-importin-beta complex formation – biochemical, FRET, CFP-Ran, YFP-importin-beta, homogeneous, primary screen | cell-free CFP-Ran/YFP-importin-beta FRET ratio | inhibition, % (test concentration not listed) | hit rate 1.1% among 300,000 | AID 2216;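 active means most replicates above 15%; inconclusive means exactly half above 15%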;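 further: 0% = DMSO wells and 100% = Ran loaded with GDP instead of GTP; wells of about 40 µL received 100 nL stock; the first replicate is given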
Beta apoptosis: blocks beta cell apoptosis; INS-1E cytokine-induced death, ATP luminescence, 48 h; percent of positive-control rescue, neutral wells zero; protection from apoptosis, % (no concentration beside the values); hit rate 0.8% among 300,000; AID 435005;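 active means all replicates at 75% or more, or half of them and the mean; inconclusive means half reach 75% but not the mean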;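 further: 0% = cytokine-treated negative control wells and 100% = positive control rescue; higher means more ATP so stronger rescue from cytokine killing; wells of about 40 µL received 100 nL stock; the first replicate is given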
MLL AF4-AF9 inh: inhibitors of human MLL-AF4/AF9 interaction; inhibition, % at 10 µM; P42568; hit rate 0.47% among 350,000; AID 651704; AlphaScreen, biotin-AF4 peptide binding to FLAG-AF9;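 active means every replicate reaching a set inhibition limit, whatever the replicate mean, cut at about 25% in these data; inconclusive means mean inhibition reaches that limit but some replicates miss it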;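 further: 0% = plate neutral control median and 100% = total signal loss; the record names both 10 and 1 µM as test concentration; the first replicate is given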
Bfl-1 A1 inh: inhibitors of the anti-apoptotic protein A1, read as caspase activation. MEF A1-2A-BIM cells, Caspase-Glo 3/7 luminescence, 3 h; percent of clofoctol response, vehicle zero. caspase activation, % (no concentration beside the values). hit rate 0.066% among 330,000;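 active means over half of replicate activation scores above 10%, or exactly half above 10 with the replicate mean above 10; inconclusive means replicate mean below 10 yet half the replicates above 10; inactive means over half of replicates below 10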;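 further: wells of about 30 µL received 50 nL stock; many hits fall short of the cut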
* hit, by the source's call; u = inconclusive; x = no result given; & = joins results of further samples. Rows are unselected. Share with any hit: about 4.3%.

SMILES | T cruzi repl | Calb FLC | LANA-H2A inh | Vif TR-FRET | RanGTP-Imp inh | Beta apoptosis | MLL AF4-AF9 inh | Bfl-1 A1 inh
CCCCc1n[nH]c(=S)n1Cc1ccc(C)cc1 | -2 | -74 | 1.9 | x | 1.1 | -5 | -7.5 | -0.3
C[C@@H]1C[C@H]2[C@@H]3C[C@H](F)C4=CC(=O)C=C[C@]4(C)[C@@]3(F)[C@@H](O)C[C@]2(C)[C@@]1(O)C(=O)CO | 5 | x | 2.2 | x | -1.2 | -22 | -0.6&-12 | 0.5
COc1ccccc1NC(=O)c1ccc(NC(=O)CSc2n[nH]c(N)n2)cc1 | -10 | 20 | 1.0 | 32% | 0.2 | -4 | 0.9 | 0.0
CC(=O)N1CC=CC1(C)C(=O)O (stereo not drawn) | -9 | -1 | -6.5 | 7% | 4.6 | -2 | -1.6 | -0.3
COc1cccc(C2(O)CCN(C(=O)C3CCC3)CC2)c1 | -6 | -3 | -0.9 | -4% | u | -2 | x | -0.4
CC(NC(=O)C1CCN(C(=O)c2cccs2)CC1)c1ccc(S(N)(=O)=O)cc1 (stereo not drawn) | x | x | 0.5 | -18% | x | -8 | 8.1 | 0.7
Cc1ccc(C(=O)NCC(=O)OCC(=O)NC2CCCCCCC2)cc1 | -13 | 6 | 2.7 | -2% | u | -3 | -3.1 | 0.1
O=C(Nc1cccnc1Cl)c1cccc(F)c1 | -5 | -4 | 2.2 | 20% | 4.2 | 4 | -3.3 | 0.8
Cc1cc(C)n(CCC(=O)Nc2cccc(F)c2)n1 | -10 | -11 | 3.1 | 8% | -2.4 | -1 | -30 | 0.4
CC1CC(C)CN(C(=O)c2cc(S(=O)(=O)N3CCCCC3)ccc2Cl)C1 (stereo not drawn) | 6 | -9 | 0.7 | x | 2.5 | 2 | -31 | 0.5
CC(C)CNC(=O)CC(c1ccccc1)c1ccccc1 | -8 | -4 | -13 | 0% | -2.1 | 2 | -1.6 | -0.5
COc1cc(C(=O)OCC(=O)NC2CCS(=O)(=O)C2)ccc1OCc1c(C)noc1C (stereo not drawn) | -11 | -4 | -1.5 | x | 4.5 | -9 | -3.6 | 0.2
COc1ccc(NC(=O)COc2nsnc2N2CCCCC2)cc1 | 8 | -6 | 0.0 | 1% | -1.6 | -2 | x | -0.5
Cc1cnc(NC(=O)C(C)N2CCN(C)CC2)s1 (stereo not drawn) | 2 | u | -1.5 | -13% | u | -6 | -0.6 | 1.1
NC(=O)c1ccc(N2CCOCC2)nc1 | -23 | 22 | 2.3 | x | -2.5 | 4 | 1.0 | 0.0
COc1ccccc1N1CCN(C(=O)CNC(=O)Cn2cnc3sc(C)c(C)c3c2=O)CC1 | -4 | -1 | -14 | 13% | -0.2 | -6 | -1.6 | 0.1
O=C(NCc1ccco1)c1cc(-c2ccccc2)nn1CC1CC(c2cccnc2)=NO1 (stereo not drawn) | 24 | -8 | -0.5 | x | 0.7 | -5 | x | -0.1
COc1cccc(Oc2c(C)oc3c(CN4CCCC4)c(O)ccc3c2=O)c1 | -6 | 3 | -0.7 | -7% | 0.9 | -1 | -0.4 | 0.9
CC1=NN(c2ccc(C(F)(F)F)cn2)C(=O)C1 | -3 | -17 | -1.7 | 24% | 3.6 | 14 | 6.5 | -0.9
C=CCNC(=O)c1cc2cccc(OC)c2oc1=O | -18 | 1 | 0.8 | -10% | 0.9 | -3 | -2.0 | -0.7
COc1ccc(-c2cccc(-c3nc4ccc(Cl)cn4c3NC3CCCCC3)c2)cc1 | x | x | -1.5 | x | x | 24 | -7.4 | 2.2
COc1ccc(-n2nnc3c(SCC(=O)N4CCCc5ccccc54)ncnc32)cc1 | -19 | -13 | 1.7 | x | 4.5 | -10 | -1.7 | -1.0
CCOc1ccc(C2=[N+]([O-])C(C)(C)N(O)C2(C)C)cc1 | -1 | -1 | 4.0 | 74% | -0.9 | -3 | x | 0.5
Cc1ccc(NC(=O)C2CC2)cc1S(=O)(=O)N1CCOCC1 | x | x | -5.7 | -2% | x | -4 | -1.4 | 0.2
CC(C)CC1(C)NC(=O)N(Cc2cc([N+](=O)[O-])cc3c2OCOC3)C1=O (stereo not drawn) | -11 | 0 | 1.6 | x | -4.7 | 2 | 3.5 | -0.3
CC1CCCCN1S(=O)(=O)c1ccc(C(=O)Nc2nnc(-c3ccccn3)o2)cc1 (stereo not drawn) | 1 | 25 | -1.5 | 2% | -1.4 | 6 | 1.6 | 0.5
O=C(Nc1ccc(O)c(-c2nc3ccccc3o2)c1)C1(c2ccccc2)CCCC1 | 16 | u | -3.4 | -2% | -0.3 | 12 | 5.5 | 1.0
CCOC(=O)c1nc2sc(C)c(C)c2c(=O)[nH]1 | -7 | -4 | 2.4 | 41% | 3.5 | 4 | -40 | 0.7
O=C(CSc1ccc(-c2ccco2)nn1)NCc1ccccc1 | 7 | 1 | 2.7 | x | -4.3 | -7 | 4.8 | 0.4
CCCc1cc(C(=O)Nc2ccccc2SC)no1 | 1 | -9 | 0.9 | 4% | -1.4 | -4 | -3.3 | -4.0

The last 3 compounds of the part before come first, to join the parts:
SMILES | T cruzi repl | Calb FLC | LANA-H2A inh | Vif TR-FRET | RanGTP-Imp inh | Beta apoptosis | MLL AF4-AF9 inh | Bfl-1 A1 inh
CCOC(=O)c1nc2sc(C)c(C)c2c(=O)[nH]1 | -7 | -4 | 2.4 | 41% | 3.5 | 4 | -40 | 0.7
O=C(CSc1ccc(-c2ccco2)nn1)NCc1ccccc1 | 7 | 1 | 2.7 | x | -4.3 | -7 | 4.8 | 0.4
CCCc1cc(C(=O)Nc2ccccc2SC)no1 | 1 | -9 | 0.9 | 4% | -1.4 | -4 | -3.3 | -4.0
O=C1CN(C(=O)COC(=O)c2cccc(S(=O)(=O)NCc3ccccc3)c2)c2ccccc2N1 | -6 | 3 | 1.8 | 10% | 3.1 | -10 | x | 0.6
CCOC(=O)C1(Cc2ccc(OC)cc2)CCN(C(=O)c2cc(C)on2)CC1 | -8 | 2 | -10 | x | 1.6 | -4 | -0.9 | 0.5
O=C(Cn1nc(C(F)F)cc1C(F)F)NNC(=S)Nc1ccc(Cl)cc1 | -4 | 17 | -3.0 | 20% | -1.2 | -1 | -2.8 | 0.2
CC(SC1=Nc2ccccc2C2CC=NN12)C(=O)NC1(C#N)CCCCC1 (stereo not drawn) | -3 | x | -4.1 | -1% | 4.2 | -1 | 10.0 | -0.5
Cc1ccc(OCC(=O)N2N=C(c3ccncc3)CC2(O)C(F)(F)F)cc1C (stereo not drawn) | 3 | -2 | 0.7 | 6% | 4.1 | -5 | -0.5 | -0.7
C=CCn1c(SCC(=O)N(C)C2CCS(=O)(=O)C2)nnc1-c1ccncc1 (stereo not drawn) | -7 | -14 | 0.9 | u | -8.9 | -5 | x | 0.6
CC(Sc1ncc(C#N)c(N)n1)C(=O)Nc1ccccc1 (stereo not drawn) | -4 | 0 | 0.0 | 6% | 1.0 | -6 | x | -0.5
C=CCOc1ccc(NC(=O)C(=O)NCCCn2ccnc2)cc1 | 5 | 6 | 1.6 | 14% | 0.4 | 15 | x | 1.5
Cc1cc(=O)[nH]c(SCC(=O)c2ccc(C)c(C)c2)n1 | -9 | u | -2.7 | 0% | -1.7 | -3 | x | 0.0
C/C(CC1CC(COCC(C)C)OC1=O)=N\Nc1nc(-c2ccccc2)cs1 (stereo not drawn) | 1 | -6 | -0.9 | 8%&29% | 3.1 | -5 | x | 0.0
CCN(CC)S(=O)(=O)c1ccc(Cl)c(NC(=O)COC(=O)/C=C/c2ccc(O)c(OC)c2)c1 | -12 | 1 | 2.5 | 19% | -0.3 | 0 | 2.3 | 0.1
Cc1nc2sccn2c(=O)c1S(=O)(=O)Nc1ccc(N2CCN(C(=O)C(C)C)CC2)cc1 | 2 | -4 | -5.7 | x | 1.1 | -1 | 2.1 | 1.7
CC1=C(C#N)C(Nc2ccc(C)cn2)(C(F)(F)F)C(=O)N1 (stereo not drawn) | -14 | -1 | 1.1 | 4% | 3.2 | 0 | x | 0.8
CC(=O)c1cccc(NC(=O)Nc2c(C)nn(C)c2C)c1 | -12 | 3 | 4.0 | 0% | 63* | 3 | x | 0.1
c1coc(Cn2nnnc2CN2CCN(C3CCCC3)CC2)c1 | 1 | -8 | 0.0 | 7% | 0.8 | -1 | x | 1.2
COc1cccc(NC(=O)Cc2c(C(=O)O)[nH]c3ccccc23)c1 | -8 | -4 | 5.1 | -9% | -0.1 | -5 | x | 1.1
C=CCN(Cc1cccs1)C(=O)COc1ccc2c(c1)OCO2 | x | x | -1.0 | x | x | -2 | 3.3 | -5.3
COc1ccc(CCNC(=O)C2CCC(CNc3c(N4CCCC4)c(=O)c3=O)CC2)cc1OC (stereo not drawn) | 11 | 1 | 4.4 | 10% | 2.8 | 2 | x | -0.1
COc1ccc(C(NC(=O)/C=C/c2ccco2)c2ccc(OC)c(OC)c2)cc1OC | -18 | -27 | 4.3 | x | -3.3 | 0 | x | -0.3
CC(C)CCC(C)NC(=O)CN1C(=O)NC(C)(c2ccc3ccccc3c2)C1=O (stereo not drawn) | 12 | 10 | -0.2 | x | 3.3 | -5 | 0.3 | 1.3

A few values from the list:
Beta apoptosis, CC(Sc1ncc(C#N)c(N)n1)C(=O)Nc1ccccc1 (stereo not drawn) : -6
Bfl-1 A1 inh, O=C(CSc1ccc(-c2ccco2)nn1)NCc1ccccc1 : 0.4

The listing continues.
SMILES | T cruzi repl | Calb FLC | LANA-H2A inh | Vif TR-FRET | RanGTP-Imp inh | Beta apoptosis | MLL AF4-AF9 inh | Bfl-1 A1 inh
O=C(Nc1ccc(Oc2ccc(NC(=O)Nc3ccccc3Cl)cc2)cc1)Nc1ccccc1Cl | 27 | -13 | -0.2 | -11% | -2.8 | 54 | -2.6 | 1.3
Cc1ccc(CNC(=O)CC2Nc3c4ccccc4nc(=S)n3C2=O)cc1 (stereo not drawn) | -20 | 6 | 2.7 | -15% | 0.4 | -1 | -1.3 | 0.6
COc1ccccc1CNC(=O)C(NC(=O)Nc1ccccc1)C(C)C (stereo not drawn) | 7 | 2 | -2.1 | x | -3.1 | 6 | 0.2 | 0.5
CCOc1cccc2sc(N(CCCN(C)C)C(=O)c3ccc(S(=O)(=O)N(C)CC4CCCO4)cc3)nc12 (stereo not drawn) | 45 | -4 | 0.6 | -3% | 1.6 | -4 | 11 | 0.1
COc1ccc(N(C(=O)CNC(=O)c2cccs2)C(C(=O)NCC2CCCO2)c2ccc(OC)c(OC)c2)cc1 (stereo not drawn) | -16 | -2 | 4.3 | 18% | 3.2 | -5 | -2.1 | -0.3
COc1ccc(NC(=O)c2cc(F)c(F)cc2Cl)cc1Cl | -6 | -3 | -9.4 | x | 3.0 | 7 | 6.2 | -2.4
C=C(C)COc1ccc(-c2ncncc2-c2ccc(OC)cc2)c(O)c1 | 34 | -6 | -5.8 | -3% | -4.0 | 23 | 5.8 | 0.8
